Mtb hypoxia rep – Mtb hypoxia fluorescent reporter inhibition; fluorescence inhibition, % (concentration not given with the values); 0.1% of 300,000 active; M. tuberculosis hypoxia-regulated fluorescent reporter, fluorescence; AID 1159583;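 active = 35 to 45% if threefold the growth effect, above 45% if 1.5-fold the growth effect; inactive = the rest, general growth blockers included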;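 also: wells of about 50 µL received 100 nL stock; 0% = vehicle wells and 100% = reference inhibitor wells; whole bacteria with a GFP reporter of the hypoxia response; strong numbers were not always called active; many hits fall short of the cut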
Autofluor counter – flagged as autofluorescent in microsphere protease counterscreen; compound autofluorescence counterscreen, microsphere flow cytometry; hits give high values; fluorescence intensity (no concentration beside the values); 3.1% of 360,000 active;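 active = at least 3 SD above the mean of all compounds, about 16000 in these data; inconclusive = too few beads counted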;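 also: 100 nL of 1 mM stock went into each well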
Sa ugtP lethal – kills S. aureus RN4220 lacking UgtP. S. aureus RN4220 ugtP deletion, OD600 growth, 16 h; some inactives read as strong as hits. growth inhibition, % (test concentration not listed). 0.54% of 330,000 active;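 active = z-score under -3 and OD600 up to 0.15 on both plates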;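 also: plate controls were untreated wells for no effect and antibiotic for full effect; wells of about 80 µL received 100 nL stock; the first replicate is given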
BJeLR lethal – BJeLR cell viability loss. BJeLR (HRASV12) viability, CellTiter-Glo ATP luminescence, 48 h; reference of the scale not given here. inhibition, % (concentration not given with the values). 0.17% of 300,000 active. AID 1554;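 active = replicate mean above 50%; inconclusive = above 50% but judged a plate artefact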;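 also: 50 nL library stock added to about 25 µL; numbers are from one replicate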
PrP 5UTR inh – inhibition of PrP 5' UTR reporter expression | cell-based PrP 5' UTR mRNA reporter, plate reader | inhibition, % (no concentration beside the values) | 0.35% of 340,000 active | AID 488862;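 active = every replicate at 50% or more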;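 also: 0 = median of the neutral control wells; tested in H4 reporter cells; numbers are from one replicate; inactives centre near -14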
Sa RN4220 lethal – kills Staphylococcus aureus RN4220. inhibition, % (no concentration beside the values). S. aureus RN4220 growth, OD600, 16 h. 0.33% of 330,000 active;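 active = z-score of -3 or lower and OD600 up to 0.18 on both plates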;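 also: plate controls were untreated cells for no effect and reference antibiotic for full effect; stock transfer was 100 nL into about 80 µL; one replicate is shown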
Mtb hypoxia rep growth – further read-out of Mtb hypoxia rep, marked with its call; growth inhibition, %; measured here: M. tuberculosis growth (absorbance);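 0% = vehicle and 100% = reference antibiotic; read after six days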
Active calls of the source: *; i = inactive; ? = inconclusive; · = not tested or not shown. Hits appear at their usual frequency. Share with any hit: about 4%.

SMILES	Mtb hypoxia rep	Mtb hypoxia rep growth	Autofluor counter	Sa ugtP lethal	BJeLR lethal	PrP 5UTR inh	Sa RN4220 lethal
COc1ccc(N/C=C/C(=O)c2ccc(C)cc2)c([N+](=O)[O-])c1	·	·	4286	·	1	-49	·
Cn1c(SCC(=O)N2CCCC2)nnc1-c1cnccn1	19	13	4200	10	4	-6	5.5
COc1cc(OC)cc(C(=O)NCC(=O)OCc2cc(=O)oc3cc(OC)ccc23)c1	-2	0	5896	-7	2	-20	2.7
COc1ccc(NC(=O)CN2C(=O)NC3(CCCCC3C)C2=O)cc1S(=O)(=O)N1CCOCC1 (stereo unspecified)	20	10	3811	1	·	-5	5.2
COc1ccc(C(CNC(=O)c2ccc(-n3cnnn3)cc2)N2CCOCC2)cc1 (stereo unspecified)	·	·	2216	5	4	-89	0.7
Cc1cc2cc(CNC(=O)c3ccc(S(=O)(=O)N4CCOCC4)cc3)ccc2n1C	10	6	1461	1	5	-9	1.7
Cc1ccc(C)c(N2CCN(C(=O)Cc3cn(C)c4ccccc34)CC2)c1	3	-1	7625	35	-7	-5	-4.4
CSCCC(NC(=O)c1ccccc1Br)C(=O)NNC(=O)C1COc2ccccc2O1 (stereo unspecified)	9	10	3681	3	·	-6	3.2
COC(=O)C1=C(C)N(c2cccc(OC)c2)C(=O)/C1=C\c1ccco1	6	-5	9801	-5	-6	-11	4.1
N#CCc1nc2ccc(S(=O)(=O)N3CCOCC3)cc2s1	-15	-3	7223	5	9	-14	4.9
Cc1cccc(Nc2c(F)c(F)c(F)c(F)c2C(=O)O)c1	10	10	4469	13	3	-35	11
COc1ccc2c(c1OC)C(=O)N(c1ccc(F)cc1)C2	4	-2	3008	2	-3	·	3.8
Cc1cc(/C=C(/C#N)c2nc3ccccc3[nH]2)c(C)n1-c1cccc([N+](=O)[O-])c1	·	·	2529	-11	0	-5	0.5
CC(=O)c1cccc(NC(=O)CN2C(=O)C(=O)N(Cc3ccco3)C2=O)c1	3	3	3434	1	·	-25	0.0
NC(=O)CSc1nnc(-c2ccc([N+](=O)[O-])cc2)o1	·	·	4382	·	-22	-20	·
C/C(=N/NC(=O)c1ccc(Br)s1)c1cccnc1	·	·	5206	·	0	-49	·
COc1ccc(C(=O)O)cc1S(=O)(=O)N(C)CCc1ccccn1	4	-4	3578	10	-2	-15	0.8
O=C(Cn1cnc2ccccc21)N/N=C/c1cccc([N+](=O)[O-])c1	·	·	4104	·	-12	-20	·
CCC(C)NC(=O)c1nn(Cc2ccccc2)c(=O)c2ccccc12 (stereo unspecified)	-5	-3	5341	6	-10	-18	-1.3
O=C(Nc1ccccc1)Oc1ccccc1N1CCOCC1	12	3	4494	6	0	-21	2.4
COC(=O)c1cc(OC)c(OC)c(OC)c1N	·	·	5065	6	-12	-13	-1.7
COCC(C)NC(=O)c1noc2c1CCc1cc(OC)ccc1-2 (stereo unspecified)	7	3	10889	1	4	-43	1.1
CCOC(=O)c1c(C)n(-c2ccccc2)c2ccc(O)c(CN(C)C)c12	13	15	3606	-31	6	-4	-1.8
CC(C)CNC(=O)C(=O)NCC1OCCCN1S(=O)(=O)c1cccs1 (stereo unspecified)	14	4	5074	-2	-5	-12	0.8
CCCn1c2ccccc2c2nnc(SCCN3CCOCC3)nc21	17	6	4013	5	25	-8	5.3
COc1ccc(-c2oc3cc(OC)c(O)c(OC)c3c(=O)c2OC)cc1O	·	·	4804	-13	17	-21	-1.4
N#CC(C#N)=C1C=C2C=C(N3CCCCC3)CCC2CC1 (stereo unspecified)	i	-2	·	-7	·	·	2.9
CCC(C(=O)OCC(=O)Nc1cccc(S(=O)(=O)NC2=NCCCCC2)c1)c1ccccc1 (stereo unspecified)	14	3	·	5	-28	·	2.9
CCOCC(=O)Nc1nc2ccc(C)cc2s1	·	·	2953	-5	-3	-89	-1.7
CC(C)c1cc(C(=O)N/N=C/C=C/c2ccccc2)n[nH]1	·	·	2236	·	-7	-16	·
C=CCn1c(NC(=O)c2ccccc2Cl)c(C#N)c2nc3ccccc3nc21	1	-8	4152	23	2	-5	40
O=C(NN=Cc1cccnc1)c1cc(O)c(O)c(O)c1	9	0	·	0	·	·	4.3
Cc1ccc(S(=O)(=O)N2C(c3ccc(C(C)C)cc3)CC=C(C(=O)O)C2c2ccc(F)cc2)cc1 (stereo unspecified)	15	2	·	42	·	·	33
Cc1ccc(C)c(NC(=O)/C(C#N)=C/c2ccc[nH]2)c1	6	0	5020	-4	-2	-2	-1.8
O=C1c2ccccc2C(=O)C1c1ccc(Cl)cc1	-7	6	5632	-6	8	3	1.8
Cn1nnnc1SCC(=O)Nc1nc(-c2ccccc2)c(-c2ccccc2)o1	·	·	3818	11	-1	-8	-7.4
CCc1nnc(N/N=C\c2ccc(OC(C)=O)c(OC)c2)n1N	·	·	3100	·	0	-3	·
Nc1ccc(C(=O)NN=Cc2cn(Cc3ccc(F)cc3)c3ccccc23)cc1	-9	-4	·	-3	·	·	2.5
O=C1c2c(O)cc(O)cc2O[C@@]12c1c(cc(O)c3c1OC(c1ccc(O)cc1)C(O)C3)OC2c1ccc(O)cc1 (stereo partly specified)	8	7	·	0	·	·	6.5
CCOc1ccc(C(=O)NC(=S)NC2CCCC2)cc1[N+](=O)[O-]	1	6	2332	2	4	-22	5.4
CCOC(=O)C1CCCN(c2nc3ccccc3nc2C(C#N)C(=O)NCc2ccccc2)C1 (stereo unspecified)	·	·	3174	-9	4	-11	-0.1
O=C(Cn1ncc2c(=O)oc3ccccc3c21)NCCc1ccsc1	1	1	5559	0	4	-5	-12
CCOC(=O)c1c(NC(=O)C2=COCCO2)sc2c1CCN(C(=O)OC)C2	2	7	·	4	-5	-19	5.9
CCCCn1c(SCC(=O)c2ccc(OC)cc2OC)nc2cc(S(N)(=O)=O)ccc21	·	·	2443	-9	7	3	4.0
CCNC(=O)c1sc(-c2ccccc2)nc1C	6	12	21235*	-14	-4	-17	10
Cc1ccc(C(=O)Nc2cc3c(cc2N2CCCCC2)n(C)c(=O)n3C)cc1	9	14	4941	-8	-8	-7	-0.2
O=C(NC(=S)NN1CCCCC1c1cccnc1)c1ccc(Cl)cc1Cl (stereo unspecified)	2	-1	?	-5	-4	-10	4.5
CC(C)(C)N1C(=O)c2ccc(C(=O)Nc3ccc(-c4nc5ccccc5[nH]4)cc3)cc2C1=O	-3	-1	2084	8	4	-11	5.1
CCc1cc2cc(OC)ccc2nc1SCC(=O)NNC(=O)c1ccco1	-4	2	2482	3	-8	-6	3.9
CCNC(=S)N1CCN(S(=O)(=O)c2ccccc2C(F)(F)F)CC1	3	2	3288	4	-2	14	-5.2
CCN(CC)CCN1C(=O)C(=O)/C(=C(/O)c2c(C)[nH]c(C(=O)OC)c2C)C1c1ccc(C)o1 (stereo unspecified)	11	2	5700	5	-7	-19	2.5
O=C1CC(c2ccccc2)n2nc(NC(=O)c3ccccc3)nc2N1 (stereo unspecified)	10	11	6788	1	0	-19	3.1
Cc1ccc(S(=O)(=O)N[C@H](C(=O)Oc2ccc3c(C(F)(F)F)cc(=O)oc3c2)c2ccccc2)cc1	·	·	3482	·	4	-13	·
COc1cc(-c2nnc(-c3cccs3)o2)cc(OC)c1OC	·	·	3438	·	-6	-21	·
CC(=O)c1c(C)[nH]c(C(=O)OCC(=O)Nc2cc(C(F)(F)F)ccc2N2CCOCC2)c1C	9	5	3348	-16	17	-12	-12
CCN(CC)CCNC(=O)c1ccc(NC(=O)Nc2cccc3ccccc23)cc1	9	6	4983	10	-2	-2	2.1
COc1ccccc1N(CC(=O)Nc1ccc2c(c1)OCCO2)S(C)(=O)=O	·	·	4391	-2	-7	-20	-2.1
COc1ccc(Cc2noc(CN(C)CCN3CCc4ccccc4C3)n2)cc1OC	10	13	3731	15	6	15	6.2
Cc1ccc(S(=O)(=O)N2CCN=C2SCc2c(F)cccc2Cl)cc1	10	4	4564	5	-5	2	1.6
CC(=O)c1oc2ccccc2c1NC(=O)COC(=O)c1ccc(-n2nc(C)cc2C)cc1	11	2	8356	-16	-5	-29	-1.3

Retrieved one by one from the list above, 3 records:
SMILES	Mtb hypoxia rep	Mtb hypoxia rep growth	Autofluor counter	Sa ugtP lethal	BJeLR lethal	PrP 5UTR inh	Sa RN4220 lethal
COc1ccccc1N(CC(=O)Nc1ccc2c(c1)OCCO2)S(C)(=O)=O	·	·	4391	-2	-7	-20	-2.1
CCN(CC)CCN1C(=O)C(=O)/C(=C(/O)c2c(C)[nH]c(C(=O)OC)c2C)C1c1ccc(C)o1 (stereo unspecified)	11	2	5700	5	-7	-19	2.5
CCc1cc2cc(OC)ccc2nc1SCC(=O)NNC(=O)c1ccco1	-4	2	2482	3	-8	-6	3.9

Following part:
SMILES	Mtb hypoxia rep	Mtb hypoxia rep growth	Autofluor counter	Sa ugtP lethal	BJeLR lethal	PrP 5UTR inh	Sa RN4220 lethal
COc1ccc2sc(N(CCN(C)C)C(=O)c3cc(Cl)sc3Cl)nc2c1	5	3	4331	7	-4	-10	1.9
CCCOc1ccc(C(=O)OCC(=O)c2c(N)n(C)c(=O)n(C)c2=O)cc1OC	-5	-2	4012	-4	4	-11	-3.1
COc1cc(OC)c(NC(=O)CC(C)=O)cc1Cl	3	5	2376	13	2	-32	1.7
c1cc(CNc2ccc3c(c2)OCO3)ccn1	·	·	·	2	0	-6	-0.2
Cc1ccc(N)cc1C	9	14	5230	2	·	-7	2.1
Cc1cc(NC(=O)COC(=O)COc2ccc(C(=O)c3ccccc3)cc2)no1	·	·	3044	1	-3	-18	2.4
Cc1noc(C)c1S(=O)(=O)N(CC(=O)N1CCCC1)c1ccc(C(C)C)cc1	·	·	5545	10	-3	9	5.5
CCn1cc(Cl)c(C(=O)Nc2cccc(C(F)(F)F)c2)n1	3	9	3335	-2	-11	-32	6.8
CCOC(=O)c1ccc(Oc2cn[nH]c2-c2ccc(O)cc2O)cc1	5	-1	3977	-7	1	-11	2.7
CCOc1ccc(S(=O)(=O)Nc2ccccc2C(=O)NCC2CCCO2)cc1 (stereo unspecified)	8	5	6980	3	-2	-18	3.7
O=C(CN1CCN(c2ccc(F)cc2)CC1)N1CCC(Cc2ccccc2)CC1	10	10	12855	-5	-2	-5	4.6
O=C(/C=C/c1ccco1)NC(=S)Nc1ccccc1N1CCCC1	-1	3	1990	99*	-9	-4	-1.9
Cc1ccc(C(=O)NCc2ccccn2)cc1NC1=NC2CS(=O)(=O)CC2S1 (stereo unspecified)	9	5	6057	-5	-2	-14	-11
Cc1ccc(NC2c3ccccc3C(=O)N2CCN2CCOCC2)cc1 (stereo unspecified)	0	-3	6383	4	0	-28	-10
O=C(Oc1ccc2c(c1)C(=O)c1ccccc1CO2)c1ccccc1	·	·	3810	12	-7	-43	5.0
COC(=O)C1=C(c2cccc(C#N)c2)CC2CCC1N2C(=O)N1CCC(C)CC1 (stereo unspecified)	6	5	·	-2	·	·	1.6
O=C(CSc1nnc(-c2ccco2)o1)c1ccc[nH]1	-11	2	3682	-25	-2	4	1.1
O=C(O)CSCc1nc2scc(-c3ccccc3)c2c(=O)[nH]1	-7	-9	4671	2	3	-23	4.4
CCn1c(CCC(=O)N(C)CC(=O)Nc2cccc(F)c2)nc2cc(S(=O)(=O)N(C)C)ccc21	0	1	5405	-2	-2	3	-1.5
Cc1nc(C)c(-c2nnc(-c3cccc(S(=O)(=O)N(C)C)c3)o2)cc1C(=O)NN	11	9	3990	9	-4	-29	4.3
COc1cccc2cc(C(=O)NC3CC(C)(C)NC(C)(C)C3)c(=O)oc12	·	·	·	-1	-5	·	0.2
CCN1C(=O)C2C(c3ccc(C)cc3)N3C(=O)N(c4cccc(F)c4)C(=O)[C@@]3(CC)C2C1=O (stereo partly specified)	4	5	·	3	·	·	3.7
CC(=O)Nc1ccc(NC2CCCCC2NS(=O)(=O)c2ccc(Cl)cc2)cc1 (stereo unspecified)	-1	3	5144	3	-10	-16	1.1
O=C(N/N=C/c1oc(O)c2ccccc12)c1ccccc1	·	·	3087	·	0	-20	·
O=C(c1nc2n(n1)C(c1ccc(Cl)cc1)C=C(c1ccccc1)N2)N1CCOCC1 (stereo unspecified)	16	17	4802	-8	2	-9	3.4

Screening results: PubChem BioAssay, several laboratories
